Compound activity as filed in PubChem.
PV pol inh – poliovirus RNA polymerase inhibition. poliovirus polymerase elongation, fluorescence polarization; hits give low values. % elongation, % (compound at 16.7 µg/mL). hit rate 0.66% among 150,000. AID 588519; in the data active = % elongation below about 90%; note: some results filed as inactive read as strong as hits
Target sequence (P03300 1749-2209 limits assumed): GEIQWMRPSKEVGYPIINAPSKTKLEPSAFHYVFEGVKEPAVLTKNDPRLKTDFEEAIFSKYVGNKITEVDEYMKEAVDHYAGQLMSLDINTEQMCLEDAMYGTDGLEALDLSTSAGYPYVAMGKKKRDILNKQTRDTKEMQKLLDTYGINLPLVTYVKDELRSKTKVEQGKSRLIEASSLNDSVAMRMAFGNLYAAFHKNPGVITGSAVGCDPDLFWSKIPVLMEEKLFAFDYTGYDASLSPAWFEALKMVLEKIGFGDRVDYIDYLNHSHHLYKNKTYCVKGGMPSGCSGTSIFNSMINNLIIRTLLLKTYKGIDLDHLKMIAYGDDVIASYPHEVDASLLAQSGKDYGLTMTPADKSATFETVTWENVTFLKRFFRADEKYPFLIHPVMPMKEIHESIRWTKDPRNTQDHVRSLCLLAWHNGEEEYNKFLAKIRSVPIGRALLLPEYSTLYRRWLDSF
PV pol inh intensity – also measured in PV pol inh; calls as there; % elongation; measured here: total intensity read-out; formula for this scale not given here;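 total fluorescence in place of polarization; lower means less elongation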
An asterisk follows results filed as active. Some of the compounds tested, so the mix of outcomes need not match the whole.

Second line of a record: PV pol inh	PV pol inh intensity
- COc1ccccc1CCNC(=O)C1(c2cccs2)CCOCC1
    104	100
- CCOC(=O)C1CCN(C(=O)C2CCN(S(=O)(=O)c3c(C)noc3/C=C/c3ccc(C)cc3)CC2)CC1
    118	121
- Cc1ccc(Cl)cc1-n1ncc2c(NC3CCCCC3)ncnc21
    111	116
- Cc1ccc(C2CC(=O)Nc3cc4c(cc32)OCCO4)cc1 (configuration not stated)
    108	103
- COc1ccc(C)cc1NC(=O)c1nnn(CC(=O)Nc2c(C)cccc2C)c1N
    105	105
- COc1ccccc1CNC(=O)CCS(=O)(=O)c1ccc2c(c1)oc(=O)n2C
    104	98
- CCOc1ccc(NC(=O)Cn2c(=O)n(CC(=O)NCCc3ccccc3)c(=O)c3sccc32)cc1
    81*	61*
- CCOc1ccccc1NC(=O)c1ccc(F)c(S(=O)(=O)N2CCN(c3ccc(F)cc3)CC2)c1
    113	109
- CCCNC(=O)c1ccc(-c2nc(CS(=O)(=O)c3ccc(C)cc3)c(C)o2)cc1
    104	105
- CCc1ccc2oc(-c3ccc(NC(=O)c4cccc(Cl)c4Cl)cc3)nc2c1
    107	112

One compound at a time (already shown). Values in the order: PV pol inh | PV pol inh intensity
`Cc1ccc(C2CC(=O)Nc3cc4c(cc32)OCCO4)cc1` (configuration not stated) is entered as 108 | 103
`COc1ccc(C)cc1NC(=O)c1nnn(CC(=O)Nc2c(C)cccc2C)c1N` is entered as 105 | 105

Other records:
Second line of a record: PV pol inh	PV pol inh intensity
- Cc1ccc(Cl)cc1NC(=O)Cn1nc2c(cc1=O)CC(C)CC2 (configuration not stated)
    106	113
- Cc1ccc(NS(=O)(=O)c2ccc3c(c2)N(C)C(=O)CC(=O)N3C)cc1Cl
    107	108
- O=C(COc1ccc(F)cc1)Nc1ccc2nc(SCC(=O)N3CCCC3)sc2c1
    103	100
- Cc1ccc(NC(=O)Nc2ccccc2OCc2cc(=O)n3ccccc3n2)c(Cl)c1
    103	104
- COc1ccc2nc(N(Cc3cccnc3)C(=O)COc3ccccc3)sc2c1
    102	101
- CCOC(=O)N1CCc2c(sc3c2c(=O)n(CCc2ccccc2)c(=O)n3CC(=O)Nc2ccc(C)cc2)C1
    103	105
- COc1ccc2ncc3c(-c4ccc(C)c(C)c4)nn(CC(=O)NC4CCCC4)c3c2c1
    102	107
- CCOc1ccc(C(c2c(O)cc(C)n(Cc3ccco3)c2=O)N2CCN(C)CC2)cc1 (configuration not stated)
    104	106
- CCCC(C(=O)Nc1cc(C)c(Cl)cc1OC)N1Cc2ccccc2C1=O (configuration not stated)
    110	116
- Cc1ccc(-c2noc(-c3ccc(N4CCC(C)CC4)c([N+](=O)[O-])c3)n2)cc1
    108	112
- CCOC(=O)c1ccc(N2C(=O)c3n[nH]c(-c4cccs4)c3C2c2ccc(C(C)(C)C)cc2)cc1 (configuration not stated)
    103	105
- CC(C)c1nn2c(=O)cc(COC(=O)c3ccc(NC(=O)c4ccccc4Cl)cc3)nc2s1
    113	109
- Cc1ccc(-c2nc(-c3cc4cccc(OCc5cccc(F)c5)c4oc3=O)no2)cc1
    122	141
- CCOc1ccc(C(c2c(O)cc(C)n(CCOC)c2=O)N2CCC(C)CC2)cc1 (configuration not stated)
    105	108
- COc1ccc(C(=O)Nc2ccc(-n3nncc3-c3ccc(OC)c(OC)c3)cc2)cc1
    100	105
- COc1cc(C(c2c(C)[nH][nH]c2=O)c2c(C)[nH][nH]c2=O)ccc1OC(=O)c1ccccc1OC
    114	111
- Cc1ccc(NC(=O)C2CCCN(S(=O)(=O)c3cccc4cccnc34)C2)c(Br)c1 (configuration not stated)
    101	108
- O=C(CN1C(=O)CCSc2ccc(S(=O)(=O)N3CCCC3)cc21)Nc1ccccc1Cl
    105	111
- CC1CCC(C(=O)NC(C(=O)OCC(=O)c2ccc(Br)cc2)C(C)C)CC1 (configuration not stated)
    113	113
- Cc1cccc(Cc2c(C)nc3nc(SCC(=O)NCc4ccc(F)cc4)nn3c2C)c1
    99	103
- CCc1cccc(NC(=O)c2cnc(N3CCOCC3)c3ccccc23)c1
    100	109
- CC(C)C(=O)Nc1cccc(NC2=NS(=O)(=O)c3ccccc32)c1
    111	110
- COCc1nc2ccccc2n1Cc1ccc(C(C)(C)C)cc1
    104	103
- Nc1cc(=O)nc(SCC(=O)Nc2cccc(Cl)c2)n1CCc1ccccc1
    108	108
- Cc1nc(N2CCCC2)c2c(C(=O)Nc3cccc(C)c3C)c(C)oc2n1
    102	100
- CCOC(=O)c1ccccc1NC(=O)c1sc2nc(-c3ccc(F)cc3)cn2c1C
    102	98
- COc1ccc(Cl)cc1NC(=O)c1c(NCc2cccs2)sc2c1CCC(C)C2 (configuration not stated)
    98	105
- CC1(C)Cc2c(c(N3CCOCC3)nc3sc(C(=O)Nc4ccc(Cl)cc4)c(N)c23)CO1
    109	111
- COc1ccc(C)cc1NC(=O)Cn1cc(S(=O)(=O)N2CCC(C)CC2)c2ccccc2c1=O
    109	108
- Cc1cc(=O)n2nc(N3CCC(C(=O)Nc4c(C)cccc4C)CC3)sc2n1
    110	107
- Cc1oc(-c2ccccc2F)nc1CSCC(=O)N1CCN(c2ccccc2)CC1
    107	106
- CCOC(=O)c1c(C)[nH]c(C)c1S(=O)(=O)N1CCC(C(=O)N2CCN(c3ccc(F)cc3)CC2)CC1
    102	106
- COc1ccc(CCNC(=O)c2ccc3c(c2)N(Cc2ccccc2F)C(=O)c2ccccc2S3=O)cc1OC (configuration not stated)
    106	105
- COc1ccc(OC)c(CCNC(=O)c2cc3c(=O)n(C)c4ccccc4c3n2C)c1
    109	112
- COc1ccc(NC(=O)c2sc3nc4n(c(=O)c3c2C)CCC4)c(OC)c1
    98	104
- COC(=O)c1cc2oc(C)cc2n1Cc1ccccc1Cl
    110	114
- Cc1ccccc1-c1nc(CS(=O)(=O)CC(=O)NCc2cccc(Cl)c2)c(C)o1
    100	97
- CCN(CCCNC(=O)Cn1ncc2c3ccccc3n(C)c2c1=O)c1cccc(C)c1
    109	113
- Cc1ccc(-c2nc(CN3C(=O)CN=C(c4ccccc4)c4cc(Cl)ccc43)c(C)o2)cc1
    112	113
- CCOC(=O)c1c(NC(=O)c2ccc(S(=O)(=O)N3CCCC(C)C3)cc2)sc2c1CC(C)(C)NC2(C)C (configuration not stated)
    102	103
- O=C(CCNS(=O)(=O)c1ccc2c(c1)CCN2C(=O)C1CC1)N1CCN(c2cccc(Cl)c2)CC1
    102	99
- COc1ccc2c(c1)c1c(c(=O)n(-c3ccccc3C)c(=O)n1CC(=O)N1CCCC1)n2C
    101	97
- COc1cc2oc(=O)c(CC(=O)N3CCCCC3)c(C)c2cc1Cl
    109	113
- COc1ccc(Cl)cc1NC(=O)Cn1nnc2sc(-c3ccccc3)cc2c1=O
    116	119
- CCN(C(=O)CSc1nc2ccccc2n1Cc1ccc(C(=O)OC)cc1)c1ccccc1
    106	111
- Cc1ccc(-n2c(=O)c3c4c(sc3n(Cc3ccccc3F)c2=O)CCC4)cc1C
    103	102
- Cc1ccc2ncc(C(=O)NCc3ccccc3Cl)c(=O)n2c1
    101	104
- CCCn1c2ccccc2c2cnn(CC(=O)NCCCN3CCCCC3)c(=O)c21
    110	112
- COCCn1c(=O)[nH]c2cc(C(=O)Nc3cccc(C(C)=O)c3)ccc2c1=O
    100	107
- CCCCNc1oc(-c2ccc(COc3ccc(OC)cc3)o2)nc1C#N
    102	104

Continued:
Second line of a record: PV pol inh	PV pol inh intensity
- COc1ccc(CCNC(=O)c2oc(=O)c3ccccc3c2-c2ccccc2)cc1OC
    99	104
- CCOc1ccccc1NC(=O)c1cc2c(=O)[nH]c3ccccc3c2s1
    110	111
- CCN(C(=O)CN1C(=O)COc2ccc(S(=O)(=O)N3CCOCC3)cc21)c1cccc(C)c1
    115	109
- CC(=O)c1ccc(NC(=O)C2CCCN(S(=O)(=O)c3ccc(Br)s3)C2)cc1 (configuration not stated)
    113	109
- Cc1ccccc1-c1nc(CS(=O)(=O)CC(=O)Nc2cccc(C(F)(F)F)c2)c(C)o1
    97	98
- COc1ccc(C(=O)c2oc3ccccc3c2NC(=O)c2cc(=O)c3ccc(C)cc3o2)cc1Cl
    106	105
- CCOc1ccc(NC(=O)CSc2oc(-c3cccs3)nc2S(=O)(=O)c2ccc(Cl)cc2)cc1
    106	109
- CCOC(=O)c1cc(OC(=O)c2ccccc2OC)n(-c2ccccc2)n1
    103	101
- Cc1ccc(-n2c(=O)c3c4c(sc3n(Cc3cccc(Cl)c3)c2=O)CCC4)cc1C
    103	100
- Cc1cc(C)cc(-n2c(SCC(=O)NCc3ccc(F)cc3)nc3c([nH]c4ccccc43)c2=O)c1
    112	117
- CCOc1ccc(C(=O)Nc2cccc(C(=O)OCc3cc(=O)n4nc(C5CC5)sc4n3)c2)cc1
    102	99
- N#Cc1cccc(NC(=O)C2CCN(c3nc(-c4ccc(Cl)cc4)no3)CC2)c1
    113	116
- CCCN(CCC)CCNC(=O)c1cc(Sc2ccc(Cl)cc2)nc2ccccc12
    111	106
- CCCCn1cc(S(=O)(=O)c2cc(C)ccc2C)c(=O)c2cc(F)c(F)cc21
    104	109
- Cc1nc2ccn(Cc3cccs3)c(=O)c2cc1C(=O)NCc1ccc(Cl)cc1
    109	113
- Cc1cc(C)cc(OCCSc2nc(-c3ccc(C(C)(C)C)cc3)nc3cc(=O)[nH]n23)c1
    100	109
- O=C(NCc1ccccc1Cl)C1CCN(S(=O)(=O)Cc2ccccc2)CC1
    109	112
- CCOc1ccc(Nc2cc(C(=O)NCc3ccccc3Cl)c3ccccc3n2)cc1
    107	105
- CCOc1ccccc1Nc1nnc(-c2cc3cc(Cl)ccc3oc2=O)s1
    109	138
- CCOC(=O)c1c(C)[nH]c(C)c1S(=O)(=O)N1CCN(c2cc(Cl)ccc2C)CC1
    106	100
- COc1ccccc1-c1nc(SCC(=O)c2ccc(Cl)cc2)n[nH]1
    102	97
- COc1ccc(-c2ccc(NS(=O)(=O)c3ccccc3)cc2)nn1
    106	111
- Cc1oc2c(c1C(=O)Nc1ccc(OC(F)(F)F)cc1)C1=NCCN1C=N2
    103	106
- CC1CCCCN1CCCNC(=O)Cn1ncc2c3ccccc3n(C)c2c1=O (configuration not stated)
    108	107
- Cc1cc(NC(=O)C(C)C)cc(-c2nc3ncccc3o2)c1O
    109	109
- Cc1ccc(C)c(NC(=O)Cn2c(=O)n(CCCS(=O)(=O)C3CCCCC3)c(=O)c3ccccc32)c1
    110	110
- COc1ccccc1N1CCN(C(=O)C2CCN(S(=O)(=O)c3cccc4nonc34)CC2)CC1
    106	112
- COc1ccc(NC(=O)CSc2nnc(NC(=O)NC3CCCCC3)s2)cc1OC
    107	106
- CCOCCCN(Cc1ccco1)C(=O)c1cc2c(s1)-c1c(C)cccc1OC2
    100	105
- Cc1cc(N)c(-n2cc3c(c2-c2ccc(Br)cc2)c(=O)n(C)c(=O)n3C)cc1C
    109	112
- COc1ccc(-c2nnc(SCC(=O)Oc3cc(C)ccc3C)o2)cc1
    103	109
- Cc1cc(C(=O)C(=O)Nc2nncs2)c(C)n1-c1ccc(Cl)cc1
    104	105
- CCOc1cc(CNCCSc2nnnn2C)ccc1OCc1ccc(Cl)cc1Cl
    102	106
- CCOC(=O)c1c(NC(=O)CSc2cn(CCNC(=O)c3ccc(OC)cc3)c3ccccc23)sc2c1CCCC2
    102	105
- O=C(CSc1n[nH]c(-c2ccccc2)n1)N1CCN(c2ccccc2F)CC1
    106	100
- N#Cc1c(-n2ncnc2-c2ccc(Br)cc2)sc2c1CCCCC2
    110	109
- O=C(Nc1ccc(C(=O)OCc2cc(=O)n3nc(C4CC4)sc3n2)cc1)c1ccccc1
    108	109
- CCCCN1C(=O)c2[nH]nc(-c3ccccc3O)c2C1c1cccc(OCc2ccccc2)c1 (configuration not stated)
    107	113

Of the compounds above, these contain an aryl thioether with sulfur outside any ring:
Second line of a record: PV pol inh	PV pol inh intensity
- O=C(COc1ccc(F)cc1)Nc1ccc2nc(SCC(=O)N3CCCC3)sc2c1
    103	100
- Cc1cccc(Cc2c(C)nc3nc(SCC(=O)NCc4ccc(F)cc4)nn3c2C)c1
    99	103
- Nc1cc(=O)nc(SCC(=O)Nc2cccc(Cl)c2)n1CCc1ccccc1
    108	108
- CCN(C(=O)CSc1nc2ccccc2n1Cc1ccc(C(=O)OC)cc1)c1ccccc1
    106	111
- CCOc1ccc(NC(=O)CSc2oc(-c3cccs3)nc2S(=O)(=O)c2ccc(Cl)cc2)cc1
    106	109
- Cc1cc(C)cc(-n2c(SCC(=O)NCc3ccc(F)cc3)nc3c([nH]c4ccccc43)c2=O)c1
    112	117
- CCCN(CCC)CCNC(=O)c1cc(Sc2ccc(Cl)cc2)nc2ccccc12
    111	106
- Cc1cc(C)cc(OCCSc2nc(-c3ccc(C(C)(C)C)cc3)nc3cc(=O)[nH]n23)c1
    100	109
- COc1ccccc1-c1nc(SCC(=O)c2ccc(Cl)cc2)n[nH]1
    102	97
- COc1ccc(NC(=O)CSc2nnc(NC(=O)NC3CCCCC3)s2)cc1OC
    107	106
- COc1ccc(-c2nnc(SCC(=O)Oc3cc(C)ccc3C)o2)cc1
    103	109
- CCOc1cc(CNCCSc2nnnn2C)ccc1OCc1ccc(Cl)cc1Cl
    102	106
- CCOC(=O)c1c(NC(=O)CSc2cn(CCNC(=O)c3ccc(OC)cc3)c3ccccc23)sc2c1CCCC2
    102	105
- O=C(CSc1n[nH]c(-c2ccccc2)n1)N1CCN(c2ccccc2F)CC1
    106	100
